FGF22 binding – binders of human FGF22 protein, primary screen, FGF22 synaptogenesis inhibitor project, biophysical, thermal shift, single point | Fibroblast growth factor 22 (Homo sapiens), Q9HCT0 | recombinant FGF22 thermal shift, SYPRO orange fluorescence; percent of sucrose octasulfate shift, DMSO zero | calls only at 9.99 µM | actives 1.5% (n = 340,000);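 active = melting point raised past a set limit in the mean and every replicate; three in four hits are not shown here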
Target sequence (Q9HCT0 whole entry, looked up): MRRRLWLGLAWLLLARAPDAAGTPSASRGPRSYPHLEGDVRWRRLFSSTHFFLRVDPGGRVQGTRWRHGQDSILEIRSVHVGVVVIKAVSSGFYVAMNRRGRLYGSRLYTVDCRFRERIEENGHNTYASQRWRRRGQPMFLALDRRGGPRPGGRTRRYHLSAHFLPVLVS
HNF4A DNA FP – change in binding of human HNF4A to DNA, primary screen, biochemical, fluorescence polarization, FITC-DNA | 1 h | activity change, % at 10 µM | actives 0.3% (n = 360,000) | AID 1224865, 2016; in the data active = activity change above about 30%, passing the limit was not always enough;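 note: controls were the assay level and a saturating level of protein; the project sought stronger binding though the title names inhibitors; some compounds called inactive have numbers as strong as hits; positive values seem to mean higher polarization but the record does not say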
Target sequence (P41235 whole entry, looked up): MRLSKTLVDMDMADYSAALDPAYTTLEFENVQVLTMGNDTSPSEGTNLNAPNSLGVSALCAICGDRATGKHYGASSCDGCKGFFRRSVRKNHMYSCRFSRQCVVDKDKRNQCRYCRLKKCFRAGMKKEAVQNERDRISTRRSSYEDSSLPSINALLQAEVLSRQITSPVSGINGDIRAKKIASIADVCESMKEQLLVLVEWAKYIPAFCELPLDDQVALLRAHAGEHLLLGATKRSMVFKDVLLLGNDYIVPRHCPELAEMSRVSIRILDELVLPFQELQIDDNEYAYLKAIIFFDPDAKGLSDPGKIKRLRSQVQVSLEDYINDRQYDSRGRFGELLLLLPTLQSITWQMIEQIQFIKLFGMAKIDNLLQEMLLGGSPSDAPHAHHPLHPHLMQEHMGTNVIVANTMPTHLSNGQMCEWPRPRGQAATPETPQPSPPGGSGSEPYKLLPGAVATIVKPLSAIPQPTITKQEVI
The depositor's hits bear a star; i = inactive; . = no result given; + = active, no number. An excerpt; count on the stated rates, not on these rows.

mol | FGF22 binding | HNF4A DNA FP
Cc1cccc(C)c1N1C(=O)c2ccccc2NC(=O)C1C(=O)Nc1ccc(N2CCOCC2)cc1 (stereo unspecified) | i | 1.2
CC1(C)CC(=O)C=C(c2cccc(OC(=O)c3ccc(-c4ccccc4)cc3)c2)C1=O | i | -5.0
Brc1cccc(-c2nc3c4ccccc4ccn3c2Cc2ccccc2)c1 | i | -2.8
CCc1nc2c(OCc3cc(Cl)cc(Cl)c3)cccn2c1N(C)C(=O)CC(C)C | i | 1.1
COc1ccccc1C(CC(=O)c1ccccc1)C(=O)c1ccccc1 (stereo unspecified) | i | 2.8
CC(C)c1ccc(CC(=O)N2CCC2(C)C(=O)NS(=O)(=O)c2ccc(F)cc2F)cc1 (stereo unspecified) | i | 1.9
CN(Cc1ccc(Cl)c(Cl)c1)C(=O)C1CC(=O)N(c2ccc3c(c2)OCCO3)C1 (stereo unspecified) | i | 0.6
CCCCC[C@@H](C)N1C[C@@H](COCc2ccccc2)Oc2cc(N3CCC[C@@H]3COC)ccc2S1(=O)=O | i | -0.9
O=C(c1cccc(Br)c1)c1nc2ccccc2[nH]c1=O | i | 1.2
CCCCC(=O)N(C)c1c(CC)nc2c(OCC(=O)N(C)C)cccn12 | i | -0.7
Cc1ccccc1S(=O)(=O)NC(=O)C1(C)CCN1C(=O)CC(c1ccccc1)c1ccccc1 (stereo unspecified) | i | 1.3
C[C@@H]1CN([C@@H](C)CO)C(=O)CCCn2cc(nn2)CO[C@H]1CN(C)S(=O)(=O)c1ccccc1 | i | 0.3
CCOC(=O)C1=C[C@@H](C(C)(C)C)N(S(=O)(=O)c2ccc(C)cc2)[C@H]1c1cccc2ccccc12 | . | -4.2
O=c1[nH][nH]c2c1C(c1ccc(F)cc1)OC(CCc1ccccc1)C2 (stereo unspecified) | i | 1.4
CC(C)NC(=O)N(C)C[C@@H]1OCc2cnnn2CCCC(=O)N([C@@H](C)CO)C[C@H]1C | i | -5.8
CNc1cncc(-c2ccc(NS(C)(=O)=O)cc2)n1 | i | 1.1
Cc1ccc2nc(C(C)(C)C)c(Cc3ccsc3)n2c1 | i | 2.3
COc1ccc(CN2C(=O)CSCC2(C)C(=O)Nc2c(C)cccc2C)cc1 (stereo unspecified) | i | 1.6
CC(=O)c1c(O)c(C)c(O)c2c1OC1=Cc3c(c(C)nn3-c3ccccc3)C(=O)C12C (stereo unspecified) | i | 5.0
COC(=O)[C@@]12C[C@@H](CC(=O)NCCC(C)C)C(=O)N(Cc3ccco3)C1=CCC(C)(C)C2 | i | -0.8
CCCCNC(=O)C1(C)CCN1C(=O)c1cccc(OC(F)(F)F)c1 (stereo unspecified) | i | -0.3
Cc1ccc(S(=O)(=O)N(C)C[C@@H]2Oc3ncc(Br)cc3C(=O)N([C@H](C)CO)C[C@@H]2C)cc1 | i | 5.2
O=S1(=O)CC(N2CCN(CCO)CC2)CN1Cc1cn(Cc2ccccc2)nn1 (stereo unspecified) | i | -3.2
O=C(N=C1SC2CS(=O)(=O)CC2N1Cc1ccccc1)C1CC1 (stereo unspecified) | i | 0.5
CN1OC[C@@H]2CN(Cc3ccccc3)[C@H](c3cccc(-c4ccccc4)c3)C[C@@H]21 | i | -0.2
O=C(c1cc(Cl)cc(Cl)c1)N1CCC(=O)N([C@H](COCc2ccccc2)Cc2ccccc2)CC1 | i | -0.4
CN(C)CCNC(=O)c1ccc(-c2cn3c(-c4ccc(Oc5ccccc5)cc4)cnc3cn2)cc1 | i | 1.9
COc1ccc([C@H]2CC(=O)C[C@@H](CCn3cc(CC4CCCC4)nn3)O2)cc1 | i | 4.0
CCn1cc(C(=O)N2CCCC(C(=O)c3cccc(C(F)(F)F)c3)C2)cn1 (stereo unspecified) | i | 1.1
O=C(Nc1nccs1)c1ccc2sc([C@H]3C[C@H](O)[C@@H](CO)O3)nc2c1 | i | 0.6
COc1cccc(Cn2c(C(C)n3c(-c4cnccn4)nc4ccccc43)nc3ccccc32)c1 (stereo unspecified) | i | -2.1
COc1cccc(OC)c1-c1cnc(NC(C)=O)cn1 | i | -0.8
CNC(=O)C[C@H]1C(=O)N(Cc2ccccc2)C[C@@H]1Cc1ccccc1 | i | 1.9
c1cnc(NCCSSCCNc2ncccn2)nc1 | i | 1.0
CCNC(=O)N(C)c1c(CC)nc2ccc(C(=O)N3CCN(C(=O)c4ccco4)CC3)cn12 | i | 3.2
Cc1cc2c(cc1C)-n1nnnc1C(N1CCCC1)C(=O)N2 (stereo unspecified) | i | -3.6
COCCNC(=O)c1cc2c(c(-c3cccc(-c4cccc(OC)c4)c3)n1)[C@H](CCO)N(S(=O)C(C)(C)C)C2 (stereo partly specified) | i | 21
CCN(CC)C(=O)C1=C(C)N(Cc2ccc(OC)cc2)C(=O)C(CC(=O)NC(c2ccccc2)c2ccccc2)C1 (stereo unspecified) | i | 1.3
COc1ccccc1OCC(=O)N1CCCCCC1 | i | 2.6
O=C1O[C@@H](c2ccccc2)C[C@@H](O)[C@H](O)CCc2ccccc21 | i | 0.8
CC1NC(=O)COC1c1ccccc1 (stereo unspecified) | . | 4.9
O=C(O)C1CCCN1c1nc(Cl)ccc1[N+](=O)[O-] (stereo unspecified) | i | -10
COC[C@@H]1CCCN1c1ccc2c(c1)O[C@H](COCc1ccccc1)CN([C@@H](C)c1ccccc1)S2(=O)=O | i | -0.9
CCCCNC(=O)c1ccc2nc(CC)c(N(CCC(C)C)CCN(C)C)n2c1 | i | -2.7
CCNC(=O)C1(C)CCCN(Cc2csc(-c3ccccc3)n2)C1 (stereo unspecified) | i | 1.0
O=C(Nc1ccc(C(=O)O)cc1)/C(=C\c1ccc2c(c1)OCO2)NC(=O)c1ccccc1Cl | i | -1.0
Cn1cnc([N+](=O)[O-])c1Sc1ccncn1 | i | -0.3
CCC(=O)N1CCC1(C)C(=O)Nc1nccs1 (stereo unspecified) | i | -4.0
COC(=O)c1ccc2nc(-c3ccc(Cl)cc3)c(Cc3ccsc3)n2c1 | i | 3.4
COc1cc(C(O)c2nc(-c3cccc(C#N)c3)cs2)ccc1F (stereo unspecified) | i | 2.4
CC(C)c1ccc(NC(=O)C2(C)Cc3c(-c4ccc(C(N)=O)cc4)ccnc3O2)cc1 (stereo unspecified) | i | -3.9
C(=C\c1ccccc1)/CN1CCN(C(c2cc3ccccc3o2)c2nnnn2Cc2ccccc2)CC1 (stereo unspecified) | i | 6.7
CC(C)CC1C(=O)N(Cc2cn(CCC3OCCO3)nn2)CCS(=O)(=O)N1Cc1ccc(-c2cccc(N(C)C)c2)cc1 (stereo unspecified) | . | -3.2
COc1ccc(NC(=O)c2cc(-c3cc(C)cc(F)c3)n[nH]2)cc1OC | i | 0.5
O=C1C=C(C#Cc2ccccc2)C[C@@H](c2ccc(F)cc2)C1 | . | 2.1
CC1(Cc2c(Cl)cccc2Cl)C(=O)Nc2cc(-c3ccccc3Cl)ccc21 (stereo unspecified) | i | -0.7

Remaining list, next part.
mol | FGF22 binding | HNF4A DNA FP
OC[C@H]1O[C@@H](c2nc(-c3nc(-c4ccc(F)cc4)no3)cs2)[C@H](O)[C@@H](O)[C@H]1O | i | 1.7
COc1ccc(N2CCN(C(=O)c3[nH]c(C(F)(F)F)nc3-c3ccccc3)CC2)cc1 | i | 6.7
O=C(OCC(=O)N1CCN(c2ccccc2)CC1)c1cc(F)c(F)cc1Cl | i | -2.4
COc1ccccc1CNc1nc(Nc2ccccc2Cl)c2sccc2n1 | i | 5.0
CN(C)c1ncnc2c1ncn2[C@H]1CN(Cc2cccs2)C[C@@H](CO)O1 | i | 0.8
COc1ccc(C(C)C)cc1S(=O)(=O)Nc1cccnc1 | i | 2.9
Cc1cc(C(=O)N2CCC2(C)C(=O)Nc2ccc3[nH]ncc3c2)nn1C (stereo unspecified) | i | 0.3
CCc1c(-c2cccc(OC)c2)ncn1Cc1cccc(-c2ccccc2)c1 | i | -3.2

Further compounds.
Compound	FGF22 binding	HNF4A DNA FP
COc1ccc(-c2csc(C(C)(NC(C)=O)c3ccccc3)n2)cc1 (stereo unspecified)	i	0.8
N#Cc1ccc(C(=O)N2CCCC(c3cc(C(=O)NCc4cccnc4)no3)C2)cc1 (stereo unspecified)	i	-1.6
CCc1nc2ccc(C(=O)NCc3ccc4c(c3)OCO4)cn2c1N(C)Cc1ccc(OC)cc1	i	-3.0
COc1cccc(-c2ccc3c(c2)N(Cc2cccc(F)c2)C(=O)C(C)S3)c1 (stereo unspecified)	i	0.6
CCCCCNC(=O)C1C(=O)Nc2ccccc2C(=O)N1c1c(C)cccc1C (stereo unspecified)	i	-1.0
COc1cccc(CNC(=O)[C@@H]2CCCN2C(=O)[C@H]2CCCCN2C(=O)c2ccc(Cl)cc2)c1	i	-0.2
COc1ccc(-c2ccc(CN3C(C(C)C)C(=O)N(Cc4cn(CC5CCCCC5)nn4)CCS3(=O)=O)cc2)cn1 (stereo unspecified)	i	-3.6
CC1(C(=O)NS(=O)(=O)c2ccc(Cl)cc2)CCN1C(=O)c1ccc(C2CCCCC2)cc1 (stereo unspecified)	i	0.9
CC(=O)C(=Cc1ccc(-c2ccccc2)cc1)C(=O)c1ccccc1	i	3.9
Cc1cc(C)c2cc(C#N)c(NCCCNC(=O)c3ccncc3)nc2c1	i	-0.7
CCN1CCC[C@H]1CNCCCn1cnc2c(SC)ncnc21	i	0.0
CCOC(=O)C1=CCN(S(=O)(=O)c2ccc(Br)cc2)C1c1cccc(C)c1 (stereo unspecified)	i	-0.4
CCN1CCN(c2sc(S(=O)(=O)CC)nc2S(=O)(=O)c2ccc(Cl)cc2)CC1	i	-4.0
Cc1ccc(C(O)c2ncc(-c3ccccc3F)[nH]2)c(C)c1 (stereo unspecified)	i	-0.4
CCCCNC(=O)C(NC(=O)c1cnccn1)C(=O)c1ccccc1 (stereo unspecified)	i	4.2
CCOc1cc(/C=N/NC(=O)c2c(C)nc3ccc(Cl)cn23)ccc1O	i	5.0
Nc1nc2ncccn2c1-c1ccc(F)c(F)c1	i	1.6
Cc1nn(-c2ccccc2)c(C)c1C(=O)OCC(=O)Nc1ccccc1Cl	i	-1.9
O=C1CCCCCC[C@@H](O)[C@H](O)C[C@H](c2ccccc2)O1	i	4.5
CCOC(=O)[C@]12CCC=C1N(Cc1ccc(Cl)cc1Cl)C(=O)[C@H](CC(=O)N1CCN(C(=O)c3ccco3)CC1)C2	i	-0.9
CCCCC[C@@H](C)N1C[C@@H](COCc2ccccc2)Oc2cc(N3CCC[C@H]3C(N)=O)ccc2S1(=O)=O	i	-1.1
COC(=O)C(Cc1c[nH]c2ccccc12)NC(=O)CCNC(=O)c1ccco1 (stereo unspecified)	i	-2.0
O=C1NC[C@@H](CCCCN2C[C@H](Cc3ccccc3)N(CC3CCCCC3)C(=O)C2=O)N(Cc2ccccc2)C1=O	+	-2.5
FC(F)(F)c1ccccc1Cc1c(-c2ccc(Cl)cc2)nc2c3ccccc3ccn12	i	3.8
O=C1NC[C@H](CCCCN2C[C@H](Cc3ccccc3)N(Cc3ccccc3)C(=O)C2=O)N(CCc2ccccc2)C1=O	i	-3.8
CC1(C(=O)NCc2ccccc2Br)CCN1Cc1ccc(-c2ccccc2)o1 (stereo unspecified)	i	3.0
COc1ccc(C(=O)NCCNc2nc3cc(C)cc(C)c3cc2C#N)c(OC)c1	i	4.9
COC(=O)c1ccc2nc(-c3ccco3)c(Cc3ccc(OC)cc3C)n2c1	i	-2.1
Cc1cn([C@H]2C[C@H](O)[C@@H](CNCc3cccn3-c3nccs3)O2)c(=O)[nH]c1=O	i	-2.4
CCN1C(=O)[C@H]2[C@@H](c3ccc(OC)cc3)N[C@]3(CCCN(Cc4ccc(OC)cc4)C3=O)[C@H]2C1=O	i	-1.7
COC(=O)[C@@]1(Sc2ccc(OC)cc2)CC(=O)N[C@@H]1c1ccccc1	i	-0.9
CCOC(=O)c1sc2nc(OCc3cccnc3)cc(C)c2c1N	i	-19
Cc1ccc(S(=O)(=O)N2CCN(c3nc(-c4cccs4)nc4ccccc34)CC2)cc1	i	1.4
C(=C\c1ccccc1)/CN1CCN(C(c2cc3ccccc3o2)c2nnnn2C2CCCCC2)CC1 (stereo unspecified)	i	3.9
CC(C)CNc1ncnc2c1ncn2[C@H]1CN(Cc2ccc(-c3ccccc3)cc2)C[C@@H](CO)O1	i	7.9
COc1cc(CN2C[C@@H](CO)O[C@@H](n3cnc4c(NC(C)C)ncnc43)C2)cc(OC)c1OC	i	1.3
CCCCN(C=O)c1c(CC)nc2ccc(C(=O)N3CCCCC3)cn12	i	4.6
CC(=O)OC[C@@H]1CN(Cc2ccccc2)C[C@H](n2cnc3c(NC4CCCC4)ncnc32)O1	i	5.1
CCCC(=O)N1CCCC1(C)C(=O)NCc1ccc(SC)cc1 (stereo unspecified)	i	5.0

Screening data from PubChem BioAssay.
